Screening results (PubChem)
CtBP-E1A inh: inhibitors of CtBP/E1A interaction. AlphaScreen GST-E1A/His-CtBP binding, 1536-well; active compounds read low; control for the full effect not named in the record. activity change, % (no concentration beside the values). actives 0.49% (n = 340,000). AID 651724; in the data active means activity change below about -65%; inconclusive means about -30% to -65%; inactive means above about -30%; also: % is scaled to controls: 0 for no effect and ±100 for the full control effect
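Homogeneous bead-based format: GST-tagged E1A captured on glutathione donor beads, His-tagged CtBP on nickel acceptor beads; compounds precede bead addition by 2 h at 37 °C.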
Six1-Eya2 blk: inhibitors of human Six1/Eya2 interaction; actives 0.56% (n = 360,000); Q15475+O00167; activity change, % (concentration not given with the values); AlphaScreen GST-Six1/His-Eya2 binding, biochemical; active compounds read low; control for the full effect not named in the record; AID 651725; in the data active = activity change below about -65%; inconclusive = about -30% to -65%; inactive = above about -30%; also: % is scaled to controls: 0 for no effect and ±100 for the full control effect
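Homogeneous AlphaScreen proximity assay pairing GST-Six1 with His-tagged Eya2 (added as 5X mix: 250 nM and 500 nM) in 50 mM Tris pH 8.0, 300 mM NaCl, 1 mM TCEP. Glutathione donor and nickel acceptor beads; 1 h, 37 °C, dark.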
gsp agonist: agonists of gsp mutant (McCune-Albright syndrome); actives 0.13% (n = 340,000); gsp mutant cells, cAMP HTRF, 30 min; control for the full effect not named in the record; Potency, µM (titrated, usually from 76.9 µM), for inactives: top-dose activation (cAMP increase), most hits filed as activators; AID 624287; active = well fitted activation curve with a large enough effect; inconclusive = small, poorly fitted or top-dose-only effect, or another doubt; inactive = no such curve, though single readings can be large or run the other way; cell line not stated here;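 also: phosphodiesterase inhibitor Ro 20-1724 added with compounds to block cAMP breakdown; potency is read from the fitted curve at half-maximal effect; nearly all actives have a fitted effect of over 60% in size; about a fifth of the inactives were tested at one dose only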
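Cells in DMEM/10% FBS with G418 were pretreated with compounds in DMSO plus […] (300 uM stock) for 30 min at 37C. cAMP was measured by HTRF (cAMP-d2 plus anti-cAMP antibody-K) after 30 min at room temperature.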
gsp antag: antagonists of gsp mutant (McCune-Albright syndrome); Potency, µM (highest dose often 76.9 µM), for inactives: at the top dose activity change, negative = inhibition, actives largely listed as inhibitors; gsp-mutant cells, cAMP HTRF, 30 min; control for the full effect not named in the record; AID 624288; actives 0.4% (n = 340,000); active = falling curve of any shape with a large fitted effect; inconclusive = falling curve, mostly with a smaller effect; inactive = flat or rising curve; cell line not stated here;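 also: intracellular cAMP measured with PDE inhibitor Ro 20-1724 present during compound exposure; potency is read from the fitted curve at half-maximal effect; % is scaled to controls: 0 for no effect and ±100 for the full control effect; nearly all actives have a fitted effect of over 65% in size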
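Measurement of cellular cAMP by homogeneous time-resolved fluorescence following a 30 min compound exposure at 37C. The PDE inhibitor […] was present throughout; the assay buffer was DPBS with 0.05% BSA and 0.005% Tween 20.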
D2 agonist: agonists of human D2 dopamine receptor (beta-arrestin); P14416; DiscoveRx PathHunter D2 beta-arrestin, luminescence, 90 min; 100% = 57 uM dopamine signal; activation, % (test concentration not listed); actives 0.084% (n = 360,000); AID 624465; in the data active = activation above about 40%; inconclusive = about 15% to 40%; inactive = below about 15%; also: compound concentration not given in the record; the text of the record calls up to 30% inactive
Target sequence (P14416 whole entry, looked up): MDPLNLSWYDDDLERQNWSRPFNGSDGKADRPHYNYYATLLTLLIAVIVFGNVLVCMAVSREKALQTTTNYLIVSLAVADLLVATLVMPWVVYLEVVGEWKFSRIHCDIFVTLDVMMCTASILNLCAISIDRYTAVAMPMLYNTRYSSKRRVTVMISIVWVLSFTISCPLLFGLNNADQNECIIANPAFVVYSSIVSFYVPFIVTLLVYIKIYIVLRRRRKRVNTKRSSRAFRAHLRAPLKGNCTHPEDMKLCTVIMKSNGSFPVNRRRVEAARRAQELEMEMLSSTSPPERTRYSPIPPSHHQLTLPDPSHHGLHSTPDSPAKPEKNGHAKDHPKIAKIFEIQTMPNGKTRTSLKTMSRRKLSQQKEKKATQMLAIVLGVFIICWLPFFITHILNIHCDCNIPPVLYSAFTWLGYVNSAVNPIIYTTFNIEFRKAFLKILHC
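DiscoveRx PathHunter D2 beta-arrestin cells (2,100/well) attached overnight, then compound-stimulated 90 min at 37 C in HBSS/10 mM HEPES/0.1% Tween-20 buffer; beta-galactosidase complementation read by luminescence after 1 h at ambient temperature. Dopamine 57 uM final (EC100) as control.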
D2 PAM: potentiates the human D2 dopamine receptor allosterically; potentiation, % (concentration not given with the values); DiscoveRx D2 beta-arrestin cells, luminescence, 90 min; 100% = 57 uM dopamine signal; P14416; actives 0.23% (n = 360,000); active = potentiation of 50% or more; inconclusive = 30% to 50%; inactive = 30% or less;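 also: compound concentration not given in the record; tested on top of an EC20 dose of dopamine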
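D2 cells co-treated with compound plus 50 nM dopamine (EC20) for 90 min at 37 deg C to detect potentiation. Beta-arrestin recruitment was read as enzyme-fragment luminescence after 1 h at ambient temperature. Full response was set by 57 uM dopamine.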
* = called active by the depositor; ? = inconclusive; / = no result given; [ ] = another dose, or the depositor's remark.

CtBP-E1A inh,Six1-Eya2 blk,compound,gsp agonist,gsp antag,D2 agonist,D2 PAM
/,3,CCc1ccc(NC(=O)c2c(C(=O)Nc3ccccc3)sc3nc(C)cc(=O)n23)cc1,13%,0%,-1.9,-10
7,3,CN(C(=O)CSC(=O)c1ccccc1)c1ccccc1,43%,10%,0.4,-7
/,9,Cn1cnnc1SCC(=O)Nc1cc(C(F)(F)F)ccc1N1CCOCC1,11%[15.4 µM],6%,6.1,-6
8,1,Cc1ccc(NC(=O)Cn2nc(-c3ccccc3Cl)ccc2=O)c(Br)c1,-1%[15.4 µM],7%,-5.2,-13
-6,2,Cc1cc(C)n(CC(O)CN(c2ccccc2)S(=O)(=O)c2ccccc2)n1 (stereo not drawn),-26%,0%,0.5,10
-20,0,CC(Sc1nnc(COc2ccc(Cl)cc2)o1)C(=O)Nc1ccc(N2CCOCC2)cc1 (stereo not drawn),14%,-2%,4.6,-3
?,-25,COc1ccc(Cl)cc1C(=O)Nc1ccc(NC(=O)C(C)C)cc1,?,-7%,-2.2,-11
-5,-1,Cc1ccc(CNC(=O)c2ccc(CS(=O)Cc3cccc(Cl)c3)o2)cc1 (stereo not drawn),16%,6%,-3.9,-6
8,3,CN1CCN(c2ccc(CNS(=O)(=O)c3ccccc3)cc2)CC1,-4%[15.4 µM],15%,0.2,0
0,14,COc1ccc(/C=C/C(=O)Nc2ccc(OC)nc2)cc1,-11%,-7%,-0.5,-5
-3,2,CCOc1ccc(-n2c(-c3ccccc3)c[n+]3c2CCCCC3)cc1,-29%,0%,-3.7,-5
-4,-13,Oc1ccccc1C1CC(c2cccs2)=NC(c2ccc(Cl)cc2)N1 (stereo not drawn),5%,?,-3.4,-16
-8,-5,Clc1ccc(-n2ncc3c(NCc4ccco4)ncnc32)cc1,8%,20%,1.2,6
-4,-5,COC(=O)c1cccc(NC(=O)CSc2nnc(COc3ccccc3)n2C)c1,-16%,-9%,-2.3,-7
-6,?,COc1cc(NS(=O)(=O)c2ccc(N/C=C\C(=O)c3ccc(OC)c(OC)c3)cc2)nc(OC)n1,-31%,-7%,-1.4,2
-14,-15,CCCc1cc(=O)[nH]c(SCC(=O)Nc2cc(S(=O)(=O)N3CCOCC3)ccc2N(CC)CC)n1,-4%,?,-0.2,0
2,-4,COc1ccc(CNC(=O)C2CCN(c3nnc(N4CCCC4=O)s3)CC2)cc1,-1%,0%,-3.2,-9
9,-22,CC(=O)Nc1nc(C)c(-c2csc(Nc3cccc([N+](=O)[O-])c3)n2)s1,7%,3%,-3.2,-11
-6,8,O=C(Nc1c(-c2ccc(Cl)cc2)[nH][nH]c1=O)c1ccccc1Cl,/,/,-9.7,-21
/,14,O=C(NCc1ccc(Cl)s1)c1cc(COc2c(F)cccc2F)on1,-9%[15.4 µM],-2%,-0.1,-3

A portion from the list above, for reference:
CtBP-E1A inh,Six1-Eya2 blk,compound,gsp agonist,gsp antag,D2 agonist,D2 PAM
9,-22,CC(=O)Nc1nc(C)c(-c2csc(Nc3cccc([N+](=O)[O-])c3)n2)s1,7%,3%,-3.2,-11
-6,8,O=C(Nc1c(-c2ccc(Cl)cc2)[nH][nH]c1=O)c1ccccc1Cl,/,/,-9.7,-21
/,14,O=C(NCc1ccc(Cl)s1)c1cc(COc2c(F)cccc2F)on1,-9%[15.4 µM],-2%,-0.1,-3

Carrying on:
CtBP-E1A inh,Six1-Eya2 blk,compound,gsp agonist,gsp antag,D2 agonist,D2 PAM
4,3,Cc1ccc(C)c(C2=CSC3=NS(=O)(=O)CCN23)c1,16%,-2%,-3.7,11
/,11,Cc1ccc(S(=O)(=O)Nc2ncccn2)cc1,0%,1%,-3.0,-30
36,36,CCCNC(=O)COc1coc(CN2CCN(c3ccccc3F)CC2)cc1=O,?,13%,6.1,4
-3,-15,NC(=S)N/N=C/c1cn(CCC(=O)O)nc1-c1cccc(Br)c1,-13%[15.4 µM],-21%,-3.5,-9
-10,4,CC(=O)c1ccc(NC(=O)CN2C(=O)COc3ccc(S(=O)(=O)N4CCCC4)cc32)cc1,-20%,2%,2.5,-11
2,-20,COc1cc(NC(=O)CN2C(=O)NC(C)(c3ccccc3)C2=O)c(C)cc1[N+](=O)[O-] (stereo not drawn),-9%[15.4 µM],-11%,-0.4,-3
39,6,CCCn1c(=N)n(CC(=O)c2ccc(Cl)cc2)c2ccccc21,-7%,-4%,-2.7,-20
0,-2,O=C(CN1CCCC1)Nc1ccc(Oc2ccc(NC(=O)CN3CCCC3)cc2)cc1,-2%,13%,-0.6,-23
/,-8,COc1ccc(C(=O)NCc2nnc(SCC(=O)Nc3cc(Cl)ccc3OC)o2)cc1,-7%,2%,-6.7,-13
-2,0,CCCNC(=O)C1CCN(S(=O)(=O)c2ccc3[nH]c(=O)ccc3c2)CC1,8%,12%,2.4,2
2,-2,CCNC(=O)NC(=O)C(C)OC(=O)Cc1coc2cc3c(cc12)CCC3 (stereo not drawn),?,-1%,4.0,-4
-17,-15,CCN1CCN(c2nc3sc4c(c3c(=O)n2-c2ccc(OC)cc2)CCCCC4)CC1,8%,7%,-0.9,-12
-10,-21,COc1ccncc1-c1ccc(C2=CC(=O)CC(C)(C)C2=O)cc1,-17%,/,-6.3,0
5,-6,COc1ccc(-n2ccnc2SCC(=O)NCc2ccco2)c(OC)c1,-7%[15.4 µM],2%,-0.4,-2
-2,1,CC(C)c1c(O)nc(SCC(=O)Nc2ccc3c(c2)CCC3)[nH]c1=O,-24%,-5%,-1.7,-14
-2,1,CC(NC(=O)COC(=O)c1cc(=O)c2ccccc2o1)c1ccccc1 (stereo not drawn),11%[15.4 µM],-10%,-4.4,-15
6,2,CC(=O)Nc1ccc(OCCC[n+]2ccccc2)cc1,5%,7%,1.9,-6
-25,21,Cc1ccc(N/N=C(\C#N)C(=N)N2CCCCC2)cc1,2%[15.4 µM],-11%,-4.7,-18
63,56,CNc1ccccc1C(=O)OCC(=O)c1ccccc1,/,-9%,0.7,-3
-1,-7,COc1ccccc1NC(=O)COC(=O)c1c[nH]c2ccccc12,-10%,?,5.9,2
-9,7,CCOC(=O)N1CCN(c2ncc(C(F)(F)F)cc2Cl)CC1,20%[15.4 µM],2%,1.6,-5
-13,-6,COc1ccc(OC)c(CCNC(=O)Cn2ccc3cc(S(=O)(=O)N4CCCC4)ccc32)c1,-83%[inhibitor],-15%,0.4,-11
-10,-5,Nc1nc(CN2CCN(Cc3ccccc3)CC2)nc(N2CCCc3ccccc32)n1,-6%,5%,-1.8,-6
-10,-6,Cn1ccc2c(N3c4ccccc4CCc4ccccc43)cc3c(c21)C1CCC3C1 (stereo not drawn),/,/,5.2,-5
3,0,COc1ccc(CNC(=O)C(=O)NCCC2CCCCN2S(=O)(=O)c2ccccc2)cc1 (stereo not drawn),-45%,-18%,0.1,-9
2,9,CCOCCCNC(=O)c1cn(CC(C)C)c(=O)c2c1c1ccccc1n2C,-18%,-12%,4.1,-4
2,0,CSCc1ccc(C(=O)NCc2ccccc2)cc1,7%,14%,-2.7,-6
-7,3,CC(=O)c1ccc(OCC(=O)OCC(=O)N(CC(C)C)c2c(N)n(Cc3ccccc3)c(=O)[nH]c2=O)cc1,-45%[inhibitor],4%,-2.5,-10
0,0,CN(CCOc1ccccc1)CC(=O)Nc1cccc(C#N)c1,-2%[15.4 µM],-2%,2.4,-9
1,-2,Cc1ccn2cc(-c3cccc(NC(=O)c4ccccc4)c3)nc2c1,37%,-19%,-1.4,-12
0,-21,CC(=O)N1CCc2cc(Br)cc(S(=O)(=O)N3CCC(C(=O)O)CC3)c21,10%,11%,-2.4,-26
0,0,Cc1c(N=C2NN=C(c3ccc(Cl)cc3)CS2)c(=O)n(-c2ccccc2)n1C,-19%[15.4 µM],8%,-1.3,-6
-1,-14,Cc1cc(/C=C(\C#N)C(=O)Nc2ccc(Cl)cc2)c(C)n1-c1ccc(N2CCOCC2)c([N+](=O)[O-])c1,7%[15.4 µM],-10%,-6.1,-11
-11,8,O=C(Nc1ccccn1)C1CCN(S(=O)(=O)c2ccc(Cl)cc2)CC1,6%[15.4 µM],6%,0.3,-1
3,9,CCOc1ccc(NC(=O)CCN2CCN(C)CC2)cc1,0%[15.4 µM],6%,3.4,-6
/,-10,CCOC(=O)c1c(C)[nH]c2c1-c1ccccc1C(=O)C2=O,-5%,75%[activator],?,7
7,2,COc1cc2c(cc1OC)C(C)N(C(C)=O)CC2 (stereo not drawn),?,4%,-5.1,-2
/,-18,CCN1CCc2nc3sc(C(=O)Nc4cccnc4Cl)c(N)c3cc2C1,?,0%,2.3,-6
-2,13,C=CCOC(=O)C1=C[C@H](c2ccccc2)[C@@H](CCCO)[C@H](OCC)O1,/,-7%,2.2,-8
-15,-28,O=C(O)/C=C\C(=O)Nc1ccc(N2CCN(c3ccc(Cl)c(Cl)c3)CC2)cc1,?,-20%,7.0,1
8,4,CC(=O)Nc1cnc(-c2ccccc2C(F)(F)F)cn1,/,/,-3.1,-6
-2,1,Cc1[nH]c(=O)[nH]c(=O)c1NC(=O)c1cccs1,-32%[inhibitor],2%,-2.1,-7
0,5,O=C(CN1C(=O)c2cccc3cccc1c23)N1CCN(c2cccc(Cl)c2)CC1,?,3%,-1.1,?
3,-3,CC(=O)c1cccc(OCc2cc(C(=O)N3CCC(N4CCCCC4)CC3)no2)c1,15%,-3%,-2.4,-5
10,1,Cc1ccc(C#N)c(SCc2ccccc2[N+](=O)[O-])n1,10%,2%,1.9,-22
-9,0,COc1cc(/C(C)=N/NC(=O)CSc2nc3ccccc3[nH]2)ccc1O,22%[15.4 µM],2%,-1.5,-7
-3,-6,CCC(=O)Oc1ccc2c(C)cc(=O)oc2c1C,16%,-7%[15.4 µM],-1.6,-18
-2,-8,CCOC(=O)c1[nH]c2ccccc2c1NC(=O)CN(C)C,?,6%,-1.2,-17
3,-2,O=C(O)CCn1c(SCc2cccc3ccccc23)nc2ccccc21,-52%[inhibitor],?,-3.3,-9
6,-12,O=C(O)c1ccc(Cn2c(=S)[nH]c3cc(Cl)ccc3c2=O)cc1,1%[15.4 µM],-21%,-9.8,-13

Further compounds:
CtBP-E1A inh,Six1-Eya2 blk,compound,gsp agonist,gsp antag,D2 agonist,D2 PAM
-1,0,Cc1cc(Br)c2c(c1)=C(c1sc(N3CCCCCC3)nc1O)C(=O)N=2,-2%[15.4 µM],12%,-6.1,-18
-9,-9,C/C(=N\Nc1cc(C(F)(F)F)ccc1Cl)c1ccncc1,-8%[15.4 µM],-28%,-6.1,-27
-90*,-98*,c1ccc(N=Nc2ccc3cccccc2-3)cc1,-3%[15.4 µM],-11%,0.2,-4
3,4,O=C(COc1ccccc1)NCC(=O)N1CCCCCC1,-48%[inhibitor],7%,-4.3,0
10,21,OC(CNCc1ccccc1F)(c1ccc(F)cc1)c1ccc(F)cc1,8%[15.4 µM],-3%,-0.4,-21
